B2AR ag = activates human beta-2 adrenergic receptor causing internalization. P07550. Am2.2-beta2AR cells, FAP receptor internalization, flow cytometry; reference of the scale not given here. response, % (test concentration not listed). 340,000 compounds, 0.43% hits. AID 504454;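 active = response above a set limit, near 3 SD of response in nonfluorescent compounds, cut at about 42% in these data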;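 also: stock transfer was 100 nL into about 11 µL; a reference agonist was the positive control; negative values mostly stem from fluorescent compounds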
Target sequence (P07550 whole entry, looked up): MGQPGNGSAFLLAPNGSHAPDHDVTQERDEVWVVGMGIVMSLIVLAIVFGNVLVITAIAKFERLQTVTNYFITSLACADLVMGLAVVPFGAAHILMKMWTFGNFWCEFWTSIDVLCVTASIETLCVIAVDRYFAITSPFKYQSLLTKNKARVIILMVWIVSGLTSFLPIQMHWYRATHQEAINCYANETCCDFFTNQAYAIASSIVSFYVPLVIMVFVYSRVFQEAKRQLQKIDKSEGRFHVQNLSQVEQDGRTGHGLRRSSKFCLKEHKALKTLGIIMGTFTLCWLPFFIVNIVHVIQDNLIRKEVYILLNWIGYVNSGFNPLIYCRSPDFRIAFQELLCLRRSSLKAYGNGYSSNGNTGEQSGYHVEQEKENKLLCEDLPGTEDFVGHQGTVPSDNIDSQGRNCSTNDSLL
Calb FLC = C. albicans growth modulation with fluconazole; growth inhibition, % (concentration not given with the values); C. albicans CaCi-2 (fluconazole-resistant clinical isolate) + fluconazole, Alamar Blue growth, 48 h; 300,000 compounds, 0.57% hits;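 active = most replicates above 75%; inconclusive = exactly half above 75%; inactive = most below 75%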;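 also: all wells also contain fluconazole at 8 µg/ml as a sub-toxic cotreatment; 0% = median of DMSO wells and 100% = median of geldanamycin control wells; wells of about 8 µL received 7.5 nL stock; the first replicate is given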
UCH37 inh = human UCH37 deubiquitinating enzyme inhibition. inhibition, % (no concentration beside the values). Q9Y5K5. purified proteasome/UCH37, Ub-AMC cleavage fluorescence. AID 588478. 330,000 compounds, 0.33% hits;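 active = mean of two replicates above 20%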;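 also: 0% = compound-free wells with enzyme and 100% = wells lacking proteasome; stock transfer was 100 nL into about 20 µL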
Target sequence (Q9Y5K5 whole entry, looked up): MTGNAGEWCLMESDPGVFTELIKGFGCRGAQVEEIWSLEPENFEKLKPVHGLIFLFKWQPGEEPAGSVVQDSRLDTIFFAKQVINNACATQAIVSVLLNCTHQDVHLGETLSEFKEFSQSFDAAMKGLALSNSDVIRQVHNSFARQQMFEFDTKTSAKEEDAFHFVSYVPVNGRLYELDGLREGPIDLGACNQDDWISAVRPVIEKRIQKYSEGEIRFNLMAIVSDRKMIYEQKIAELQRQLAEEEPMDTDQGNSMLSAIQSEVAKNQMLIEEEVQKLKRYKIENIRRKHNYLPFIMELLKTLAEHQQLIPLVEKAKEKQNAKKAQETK
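Schedule: 30 min plus 25 min, room temperature / Material: human UCH37 within purified proteasomes / Technique: AMC fluorescence intensity at 355/460 nm / Buffer or medium: pH 7.4 Tris-HCl (50 mM) with ovalbumin, ATP-MgCl2, DTT / Controls: wells without proteasome as full block, compound-free enzyme plus substrate as uninhibited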
RanGTP-Imp inh = inhibitors of RanGTP-importin-beta interaction, primary screen, biochemical, FRET, CFP-Ran, YFP-importin-beta, homogeneous; cell-free CFP-Ran/YFP-importin-beta FRET ratio; inhibition, % (no concentration beside the values); 300,000 compounds, 1.1% hits; AID 2216;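 active = most replicates above 15%; inconclusive = exactly half above 15%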;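 also: 0% = DMSO wells and 100% = Ran loaded with GDP instead of GTP; wells of about 40 µL received 100 nL stock; the first replicate is given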
LANA-H2B inh = blocks KSHV LANA binding to histone H2A/H2B. cell-free LANA-H2A/H2B peptide, fluorescence polarization. AID 2629. inhibition, % (concentration not given with the values). 320,000 compounds, 0.6% hits; in the data active = inhibition mostly above about 10%, no sharp cut-off; inactive = mostly below about 6.7%;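 also: stock transfer was 7.5 nL into about 10 µL; 0% = median of vehicle wells and 100% = median of positive control wells; one replicate is shown; the record names a cut of 25% in any replicate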
A1 inh = inhibitors of the anti-apoptotic protein A1, read as caspase activation; MEF A1-2A-BIM cells, Caspase-Glo 3/7 luminescence, 3 h; percent of clofoctol response, vehicle zero; caspase activation, % (test concentration not listed); 330,000 compounds, 0.066% hits; AID 2462;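 active = over half of replicate activation scores above 10%, or exactly half above 10 with the replicate mean above 10; inconclusive = replicate mean below 10 yet half the replicates above 10; inactive = over half of replicates below 10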;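 also: wells of about 30 µL received 50 nL stock; many hits fall short of the cut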
T cruzi repl = blocks replication of Trypanosoma cruzi; T. cruzi beta-gal in NIH3T3, luminescence, 90 h; 300,000 compounds, 1.4% hits; inhibition, % (concentration not given with the values);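 active = mean inhibition across valid replicates above about 55%, limit read from the data; inconclusive = mean below that limit but half or more replicates reach it; inactive = mean below it, under half of replicates reach it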;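 also: signal also drops with host cell toxicity which is not excluded here; 0% = plate median of DMSO wells and 100% = zero luminescence signal; higher percent means less beta-gal luminescence so fewer parasites; stock transfer was 50 nL into about 50 µL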
Beta cell apopt = beta cell apoptosis inhibition; AID 435005; INS-1E cytokine-induced death, ATP luminescence, 48 h; percent of positive-control rescue, neutral wells zero; 300,000 compounds, 0.8% hits; protection from apoptosis, % (concentration not given with the values);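 active = all replicates at 75% or more, or half of them and the mean; inconclusive = half reach 75% but not the mean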;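 also: 0% = cytokine-treated negative control wells and 100% = positive control rescue; higher means more ATP so stronger rescue from cytokine killing; wells of about 40 µL received 100 nL stock; the first replicate is given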
Active calls of the source: *; ? = inconclusive; / = not tested or not shown. Random draw from the library; overall some 4.3% were active at least once.

1. Fc1ccc(-c2nc3ccccn3c2NCc2ccc3c(c2)OCO3)cc1
2. C/C(Cl)=C\Cn1c(O)c(N=O)c2ccccc21
3. CCc1ccc(CN(C)C(=O)C2CCC(=O)N(Cc3ccccn3)C2)cc1 (stereo unspecified)
4. CCOC(=O)Nc1ccc2c(COC(=O)c3ccccc3O)cc(=O)oc2c1
5. COc1cccc(NC(=O)c2ccc(Cn3cc([N+](=O)[O-])cn3)o2)c1
6. O=[N+]([O-])c1ccc(N2CCN(c3ccc(F)cc3)CC2)nc1
assay / entry	1	2	3	4	5	6
B2AR ag	-23	-2	-1	-8	3	28
Calb FLC	-57	-9	-1	-1	2	-3
UCH37 inh	-276	5.7	/	-139	0.4	4.1
RanGTP-Imp inh	1.8	-2.4	?	?	-0.3	-6.7
LANA-H2B inh	-4.5	-1.0	/	2.7	5.4	-3.3
A1 inh	-1.2	1.6	/	-0.2	-0.7	1.6
T cruzi repl	2	15	1	23	2	-7
Beta cell apopt	0	-3	/	-5	2	-3

An excerpt from above in order of molar mass, ascending.
2. C/C(Cl)=C\Cn1c(O)c(N=O)c2ccccc21
1. Fc1ccc(-c2nc3ccccn3c2NCc2ccc3c(c2)OCO3)cc1
4. CCOC(=O)Nc1ccc2c(COC(=O)c3ccccc3O)cc(=O)oc2c1
assay / entry	2	1	4
B2AR ag	-2	-23	-8
Calb FLC	-9	-57	-1
UCH37 inh	5.7	-276	-139
RanGTP-Imp inh	-2.4	1.8	?
LANA-H2B inh	-1.0	-4.5	2.7
A1 inh	1.6	-1.2	-0.2
T cruzi repl	15	2	23
Beta cell apopt	-3	0	-5

The listing continues.
7. O=C(/C=C/c1cccs1)NNC(=O)c1ccccc1
8. COc1ccc2nc(NC(=O)c3cccc(S(=O)(=O)N4CCOCC4)c3)sc2c1
9. CSc1ccc(OC2CCCCC2NS(=O)(=O)c2ccccc2)cc1 (stereo unspecified)
10. CN(C)S(=O)(=O)c1ccc2nc(NC(=O)c3cccs3)sc2c1
11. CC12CN3CCN(CC(C3)C1(O)CN1CCCCC1)C2 (stereo unspecified)
12. Cc1n[nH]c(=S)n1/N=C/c1cccc(OCc2ccccc2)c1
assay / entry	7	8	9	10	11	12
B2AR ag	7	4	10	-6	-2	-7
Calb FLC	/	-2	-38	35	-11	-8
UCH37 inh	3.9	-13	2.5	4.9	0.3	/
RanGTP-Imp inh	/	-1.7	-0.8	-2.6	-3.1	?
LANA-H2B inh	-11	-5.5	0.1	15	1.7	1.7
A1 inh	-0.1	-0.6	0.0	-4.1	-0.4	0.9
T cruzi repl	/	-2	15	4	-13	-18
Beta cell apopt	-1	4	9	6	1	-1

13. O=C(Nc1cccc2ccccc12)c1cnccn1
14. CC(=O)N1CC(=O)N(c2ccccc2)C1=O
15. CC(C)(C)C(=O)NCCc1nc(-c2ccccc2)no1
16. COc1ccc(C2/C=C\CN(CC(C)C)CC(=O)N2Cc2ccc(F)cc2)cc1 (stereo unspecified)
17. COc1ccc(C(=O)N(C)C(C)c2ccon2)cc1OC1CCN(C(C)C)CC1 (stereo unspecified)
18. COc1ccc(-n2c(C)cc(/C=C3/SC(=O)N(CC(=O)N4CCOCC4)C3=O)c2C)cc1
assay / entry	13	14	15	16	17	18
B2AR ag	1	5	-4	10	1	-10
Calb FLC	11	-4	-19	-9	-2	-1
UCH37 inh	5.4	-0.8	1.3	-0.9	7.0	-3.3
RanGTP-Imp inh	4.6	-2.1	-3.6	10	1.7	3.5
LANA-H2B inh	0.7	-1.9	-1.2	-4.4	-9.0	-8.0
A1 inh	-0.5	-2.8	0.5	-0.4	-0.5	0.5
T cruzi repl	2	-12	2	-10	-14	24
Beta cell apopt	-3	-1	0	-2	-3	-2

19. CCOc1ccc(NC(=O)CCN2CCCCC2)cc1
20. CCOC(=O)N1CCN(S(=O)(=O)c2ccc(C(=O)Nc3nnc(C4CC4)o3)cc2)CC1
21. COC(=O)c1ccc(-c2nc(CN3CCCN(C(=O)c4ccco4)CC3)c(C)o2)cc1
22. Cc1nnc(Sc2cc(C(=O)NC3CC3)c3ccccc3n2)s1
23. Cc1ccc(COC(=O)c2cc([N+](=O)[O-])ccc2N2CCOCC2)cc1
24. C=C(C)C1CCC(C)=C1COC(=O)Nc1ccccc1 (stereo unspecified)
assay / entry	19	20	21	22	23	24
B2AR ag	-1	-13	29	-30	25	3
Calb FLC	-2	-7	5	24	-2	-8
UCH37 inh	4.7	1.9	-3.6	3.0	/	/
RanGTP-Imp inh	1.7	12	?	-1.0	1.4	-1.1
LANA-H2B inh	0.0	-6.7	3.6	-7.0	-2.5	3.1
A1 inh	0.2	?	-0.1	-0.3	0.7	-0.1
T cruzi repl	-10	6	19	-16	29	0
Beta cell apopt	-12	-4	-3	0	22	3

25. CCOC(=O)c1cn2ccc(C)cc2n1
26. CC(C)Nc1cc(C(F)(F)F)nc(-c2ccccn2)n1
27. Cc1ccc(S(=O)(=O)N2CCCCC2CCNC(=O)C(=O)NCc2ccccc2C)cc1 (stereo unspecified)
28. C/C(=N\NC(=O)c1nnn(-c2nonc2N)c1-c1ccc(Cl)c(Cl)c1)c1ccncc1
29. Cn1cc(C(=O)N/N=C/c2ccc(Br)c([N+](=O)[O-])c2)c2ccccc21
30. O=C(NNC(=S)NC(=O)c1cccnc1)c1ccccc1
assay / entry	25	26	27	28	29	30
B2AR ag	4	-10	-13	11	13	0
Calb FLC	-15	9	-5	-24	0	-12
UCH37 inh	-16	0.7	4.8	/	/	4.3
RanGTP-Imp inh	-0.5	-2.0	6.2	0.3	-1.6	-1.5
LANA-H2B inh	7.6	1.0	-6.7	0.4	3.6	-3.0
A1 inh	1.3	-1.1	-0.2	0.6	-0.1	0.4
T cruzi repl	-27	-9	14	-5	11	-6
Beta cell apopt	-7	-7	/	5	2	2

31. Cc1cc(NC(=O)CSc2nnc(C3COc4ccccc4O3)n2N)no1 (stereo unspecified)
32. COc1cccc2c1OCC/C2=N\NC(=O)C(C)Oc1ccc([N+](=O)[O-])cc1 (stereo unspecified)
33. CCOCCCNC(=O)C1CC(=O)N(CCc2ccc(C)cc2)C1 (stereo unspecified)
34. COc1ccccc1CN1[C@@H](CC(=O)O)c2ccccc2S1(=O)=O
35. O=C(CCC1CCCC1)NNC(=O)c1cccc(Cl)c1
36. CCOC(=O)C1(C)/C(=N/Nc2ccccc2)C(=O)C(=O)N1c1ccccc1 (stereo unspecified)
assay / entry	31	32	33	34	35	36
B2AR ag	2	-9	-1	2	-1	1
Calb FLC	-8	1	17	0	7	-19
UCH37 inh	6.5	/	1.1	-2.1	3.4	8.8
RanGTP-Imp inh	0.5	-0.7	5.4	-0.4	0.7	-4.9
LANA-H2B inh	-0.7	7.4	0.8	9.4	-6.7	-9.4
A1 inh	1.0	0.3	0.5	1.0	-1.0	0.4
T cruzi repl	-8	19	3	-1	-1	6
Beta cell apopt	-2	-3	0	-3	-1	9

37. CC(=O)Nc1ccc(-c2csc(Nc3cc(C)ccn3)n2)cc1
38. CC1CN(C(=O)CCC(=O)N2CCCCC2)c2ccccc2O1 (stereo unspecified)
39. O=C(NCCNC1CCC(c2ccccc2)CC1)c1cccs1 (stereo unspecified)
40. C[N+](C)=C1SCC(C)(/C=N/O)S1 (stereo unspecified)
41. CN(CC(=O)Nc1ccc(C(N)=O)cc1)S(=O)(=O)c1ccc2c(c1)OCCO2
42. Cc1c(CCO)c(=O)n(-c2ccccc2)n1S(=O)(=O)c1ccc(F)cc1
assay / entry	37	38	39	40	41	42
B2AR ag	-1	0	4	-9	5	-2
Calb FLC	24	-13	-16	-3	/	-8
UCH37 inh	-0.3	0.8	-0.2	/	2.4	0.2
RanGTP-Imp inh	1.5	-2.3	1.8	5.4	/	1.9
LANA-H2B inh	2.0	0.0	-5.4	1.5	4.4	5.0
A1 inh	-0.4	0.2	-0.3	0.1	-0.1	0.1
T cruzi repl	23	-4	39	-8	/	-17
Beta cell apopt	5	0	0	-1	-5	-2

43. CCN1C(=O)CSC1=Nc1ccc(Cl)c(Cl)c1
44. CN(C)c1ccc(/C=C2\N=C(C(C)(C)C)OC2=O)cc1
45. CCOC(=O)C1CCN(CC(=O)Nc2cc(C)nn2-c2nc3ccccc3s2)CC1
46. COc1ccc(/C=C/C(=O)c2ccncc2)c2ccccc12
47. Cc1ccc(S(=O)(=O)NCCC(=O)NCCSc2ccc(Br)cc2)cc1
48. O=C(Nc1ccc(Oc2cccnc2)cc1)C1CCCCN1Cc1ccc(CO)o1 (stereo unspecified)
assay / entry	43	44	45	46	47	48
B2AR ag	9	27	6	18	-4	-18
Calb FLC	-21	12	-3	35	2	0
UCH37 inh	1.5	4.7	0.9	6.3	2.5	0.0
RanGTP-Imp inh	1.1	2.3	-2.9	-39	2.0	6.3
LANA-H2B inh	-0.4	1.8	/	1.3	2.7	6.2
A1 inh	-0.8	-1.8	/	-1.3	0.2	0.1
T cruzi repl	-1	-10	-19	-27	-9	1
Beta cell apopt	-3	4	/	100*	/	6

49. CC(NS(=O)(=O)c1ccccc1)c1n[nH]c(=S)n1-c1ccccc1 (stereo unspecified)
50. O=C(NN=Cc1ccc(OC(F)F)cc1)c1ccc(NS(=O)(=O)c2cccs2)cc1
51. O=C(CSc1nnc(-c2ccccc2)o1)N1CCCCC1
52. S=C(NCCc1ccccc1)N1CCCCC1
53. O=C(COc1ccccc1[N+](=O)[O-])Nc1cccnc1
54. O=C(NNS(=O)(=O)c1ccc(Cl)cc1)c1cccs1
assay / entry	49	50	51	52	53	54
B2AR ag	1	10	-13	-3	4	10
Calb FLC	-4	/	-3	-26	-3	3
UCH37 inh	3.6	5.7	4.1	0.6	1.0	-1.0
RanGTP-Imp inh	-4.9	/	1.1	-5.1	1.3	3.7
LANA-H2B inh	4.5	-4.0	-1.1	5.3	4.2	4.5
A1 inh	0.4	-1.8	0.2	-0.3	-0.3	0.6
T cruzi repl	-14	/	-3	-11	-6	2
Beta cell apopt	0	-7	-7	-2	-7	-2

Arranged by the number under B2AR ag (descending): 3 of the compounds above
# | mol | B2AR ag | UCH37 inh | RanGTP-Imp inh | LANA-H2B inh
36 | CCOC(=O)C1(C)/C(=N/Nc2ccccc2)C(=O)C(=O)N1c1ccccc1 (stereo unspecified) | 1 | 8.8 | -4.9 | -9.4
35 | O=C(CCC1CCCC1)NNC(=O)c1cccc(Cl)c1 | -1 | 3.4 | 0.7 | -6.7
20 | CCOC(=O)N1CCN(S(=O)(=O)c2ccc(C(=O)Nc3nnc(C4CC4)o3)cc2)CC1 | -13 | 1.9 | 12 | -6.7

(cont.)
55. CC(=O)NCCc1nc2cc(NC(=O)c3ccccc3)ccc2n1C
56. CCOC(=O)C1CCN(C(=O)Cn2nc(C)n3nc(-c4ccc(OC)cc4)cc3c2=O)CC1
57. COCCNC(=O)CN(C(=O)CCC(=O)Nc1cc(C)on1)c1cccc(C)c1C
58. Cc1[nH]n(-c2ccccc2)c(=O)c1N=Nc1ccc(Cl)cc1
assay / entry	55	56	57	58
B2AR ag	1	3	2	4
Calb FLC	31	-3	-1	8
UCH37 inh	6.4	-2.2	1.7	6.9
RanGTP-Imp inh	0.9	2.2	2.4	-0.3
LANA-H2B inh	-236	-1.7	0.8	2.0
A1 inh	-0.4	0.9	0.3	0.8
T cruzi repl	1	-13	12	-29
Beta cell apopt	-2	2	-7	-17
